CapD inh: Bacillus anthracis CapD inhibitors, primary screen, biochemical, fluorescence intensity; CapD gamma-glutamyltranspeptidase (Bacillus anthracis Ames Ancestor); purified CapD enzyme, fluorescence intensity read-out; stronger effect = lower value; some hits fall short of the stated cut; z-score (concentration not given with the values); actives 0.23% (n = 140,000);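 active = z-score under -4 in either of two replicates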;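 also: stock transfer was 100 nL into about 40 µL; score is relative to mean and spread of the plate; one replicate is shown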
AID504770: growth inhibition of E. coli YBA685, primary screen, V. cholerae RctB inhibitors; E. coli YBA685 rctB-dependent plasmid, OD600 growth, 3 h; stronger effect = lower value; actives 0.27% (n = 130,000); z-score (test concentration not listed);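 active = z-score under -2 on both plates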;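 also: wells of about 30 µL received 100 nL stock; score is relative to mean and SD of the test wells; the first replicate is given; strong numbers were not always called active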
An asterisk follows results filed as active; . = not tested or not shown; & = joins results of further samples.

SMILES	CapD inh	AID504770
N/C(=N\NS(=O)(=O)c1ccccc1)c1ccccn1	-0.24	1.15
NC(=O)C1CCN(c2nnnn2-c2ccccc2)CC1	.	-0.9
NC(=O)c1ccccc1OCC(=O)NS(=O)(=O)c1ccc(Cl)cc1	-0.095	-0.5
O=C1CCC(=O)N1CNC1CCCCC1	.	1.3
O=C(Nc1ccccc1)C1CCN(C(=O)Nc2ccccc2)CC1	.	-0.1
CCOC(=O)c1cc(C#N)c(N2CCN(C(=O)OCCSCc3ccc4nonc4c3)CC2)nc1C(F)(F)F	0.985	.
O=C(CNS(=O)(=O)c1cccc2nsnc12)NNC(=O)OCCOCCN1CCN(C(c2ccccc2)c2ccc(Cl)cc2)CC1 (stereo not drawn)	-0.2	.
COc1ncnc2sc3c(c12)CCCC3	0.045	.
C=CCNCc1nc(-c2cccc(C)c2)no1	0.99	0
O=C(Cn1ccc(C(F)(F)F)n1)Nc1ccc(Cl)cc1	-0.785	-0.8
O=c1oc2ccccc2cc1-c1nc(-c2ccc3ccccc3c2)cs1	-0.695	.
CCCC1Cc2nc3sc(C(=O)OCC)c(N)c3cc2CO1 (stereo not drawn)	0.16	1.7
CCc1ccc(OC(=O)/C=C/c2ccco2)cc1	-0.59	-0.1
Cc1ccc(CNCCN2CCOCC2)o1	-0.385	-0.55
CC(C)(C)C(=O)Nc1cccc(-c2nnco2)c1	-0.145	2.15
O=C(Nc1ccc(-c2cn3ccsc3n2)cc1)c1cccs1	-0.65	-0.5
COC(=O)c1ccc(S(N)(=O)=O)o1	.	-0.85
Cc1cc(C)c(C2C(C#N)=C(N)Oc3n[nH]c(C)c32)cc1COc1ccccc1Cl (stereo not drawn)	0.465	-0.35
COC(=O)c1cccc(Nc2nc(C)cc(C)n2)c1	4.46	.
CN1CCN(c2ccc(Cl)cc2NC(=O)c2ccc(Cl)cc2)CC1	-0.545	.

Complete entries from above. Values in the order: CapD inh | AID504770
`CCOC(=O)c1cc(C#N)c(N2CCN(C(=O)OCCSCc3ccc4nonc4c3)CC2)nc1C(F)(F)F` across the screens: 0.985 | .
`O=C(Nc1ccccc1)C1CCN(C(=O)Nc2ccccc2)CC1` across the screens: . | -0.1
`CCc1ccc(OC(=O)/C=C/c2ccco2)cc1` across the screens: -0.59 | -0.1
`O=C(Nc1ccc(-c2cn3ccsc3n2)cc1)c1cccs1` across the screens: -0.65 | -0.5
`O=C(Cn1ccc(C(F)(F)F)n1)Nc1ccc(Cl)cc1` across the screens: -0.785 | -0.8

(next part)
SMILES	CapD inh	AID504770
N#CC(C(=O)c1ccco1)c1ccccn1 (stereo not drawn)	-0.49	0.45
CC(C)(C)NC(=O)c1cc2c(s1)CCCCC2	-0.535	1.6
Cc1ccc(C)c(NC(=O)CN(C)C(C)C(=O)N2CC(C)CC(C)C2)c1 (stereo not drawn)	.	1.05
CCn1c(=O)n(CC(=O)N2CCN(c3ccc(C)cc3)C(C)C2)c(=O)c2ccccc21 (stereo not drawn)	-0.57	.
CCNS(=O)(=O)c1ccc(NC(=O)c2ccc3c(c2)OCO3)cc1	.	2.6
Cc1cccc(NS(=O)(=O)c2ccc(-c3cc(C(F)(F)F)no3)s2)c1	-0.03	0.15
CCC(=O)Nc1nc(NC(=O)CC)c2ncn(C(=O)CC)c2n1	2.04	-0.4
CC(=O)Oc1c(Sc2ccccc2)c(C)nn1-c1ccccc1	-0.535	-1.75
COc1ccc(Br)c(C(=O)NN)c1	-0.05	.
Cc1ccc(C)c(NC(=O)C2CCCN(S(=O)(=O)c3c(C)nn(C)c3C)C2)c1 (stereo not drawn)	-0.33	-0.3
CCOC(=O)c1[nH]c2ccccc2c1NC(=O)CC1CCCCC1	3	1.1
CCCn1c(SC(C)C(=O)Nc2ccc(C#N)cc2)nc2ccccc21 (stereo not drawn)	.	-0.1
CSc1sc(C(=O)NNC(=O)c2ccc3c(c2)OCO3)c2c1C1(CCC2)SCCS1	-1.65	.
O=C(Cc1ccccc1)OCC(=O)c1cccc(C(F)(F)F)c1	0.335	-0.45
CC(Oc1ccc(Cl)cc1Cl)C(=O)Nc1ccc(Cl)cn1 (stereo not drawn)	0.275	0.7
O=C(NC(C(=O)O)C12CC3CC(CC(C3)C1)C2)c1ccc(F)cc1 (stereo not drawn)	-0.8	0.25
Ic1cccc(-c2nnc3ccc4ccccc4n23)c1	0	.
O=[N+]([O-])c1cccnc1NCc1ccc(Cl)cc1	-0.44	.
Cc1ccc(C(=O)Nc2noc3ccccc23)cc1	-1.09	0.7
CCOC(=O)c1sc2sc(-c3ccn[nH]3)c(C)c2c1C	-0.005	0.1

Reprinted from the part before: 7 entries, followed by the next part.
SMILES	CapD inh	AID504770
O=C(Cc1ccccc1)OCC(=O)c1cccc(C(F)(F)F)c1	0.335	-0.45
CC(Oc1ccc(Cl)cc1Cl)C(=O)Nc1ccc(Cl)cn1 (stereo not drawn)	0.275	0.7
O=C(NC(C(=O)O)C12CC3CC(CC(C3)C1)C2)c1ccc(F)cc1 (stereo not drawn)	-0.8	0.25
Ic1cccc(-c2nnc3ccc4ccccc4n23)c1	0	.
O=[N+]([O-])c1cccnc1NCc1ccc(Cl)cc1	-0.44	.
Cc1ccc(C(=O)Nc2noc3ccccc23)cc1	-1.09	0.7
CCOC(=O)c1sc2sc(-c3ccn[nH]3)c(C)c2c1C	-0.005	0.1
O=C(Nc1ccc(-c2nc3cc(NC(=O)C4CCCCC4)ccc3o2)cc1)C1CCCCC1	1.17	-0.7
O=C(COC(=O)c1cccc(Cl)c1Cl)Nc1ccc2[nH]c(=O)[nH]c2c1	.	1.1
O=C(CSc1ccc(Cl)cc1)Nc1ncc2c(n1)-c1ccccc1CC2	1.69	.
N#CCc1nc(CCNc2ccccc2)no1	.	0.4
Cc1c(C(=O)N2CCCc3ccccc32)sc2ncn(Cc3ccccc3F)c(=O)c12	-0.09	.
O=C(O)C1=COCCO1	0.02	0
Cc1ccc2c(c1)C1OCCC1C(c1ccco1)N2 (stereo not drawn)	0.09	0.15
CCOc1cc(C=C2C(=O)N(C)C(=O)N(C)C2=O)cc(Cl)c1OCc1ccccc1	-0.055	.
O=C(CCC(=O)N1CCN(c2ccc(F)cc2)CC1)c1ccc(Cl)cc1	0.345	-0.3
Nc1ccccc1Sc1ncc(C(F)(F)F)cc1Cl	-0.745	-0.05
O=C(c1ccccc1)C1CN(c2ccccc2)CC1c1ccc(Cl)cc1 (stereo not drawn)	-0.235	.
O=c1nc2ccccn2c2c1c(=O)[nH]c1ccccc12	.	0.1
O=C1NC(=Nc2cccc(Cl)c2Cl)S/C1=C/c1ccco1	-1.94	3.2
Cc1ccc(C)c(NC(=S)N(C)C)c1	0.915	0.4
Cn1cnnc1Sc1ccc(Cl)cc1NC(=O)c1cc(=O)[nH]c2ccccc12	.	-0.85
CC(=O)N1CC(C)Oc2cc(S(=O)(=O)N(C)Cc3ccccc3)ccc21 (stereo not drawn)	-1.16	-0.25
COc1cccc(C(=O)NC(C)(C)C)c1OC	-0.4	1.35
NS(=O)(=O)c1ccc(NC(=O)C2CCCNC2=O)cc1 (stereo not drawn)	0.085	0.1
COc1ccccc1CNC(=O)CO/N=C/c1cccs1	.	1.8
Cc1ccc(-n2cccc2)c(NS(=O)(=O)c2ccc(-c3ccon3)s2)c1	0.355	-0.25
CCOc1ccc(/C=C(\NC(=O)c2ccccc2)C(=O)NC)c2ccccc12	-0.67	-0.75
N#Cc1ccc(C=NCCN2CCNC2=O)cc1	0.475	-0.55
CCc1ccc(-c2nc(CSCC(=O)NC3CC3)c(C)o2)cc1	0.23	-1.55
O=C(Nc1cc(Cl)cc(Cl)c1)N1CCN(C2c3ccccc3-c3ccccc32)CC1	-0.185	0.65
c1cc(N2CCOCC2)ccc1NC1=NCCS1	-0.17	-1.7
CC(Sc1nnc(Nc2ccccc2F)s1)C(=O)Nc1ccccc1 (stereo not drawn)	.	0.8
O=C(c1sc(=S)n2c1[nH]c(=O)c1ccccc12)N1CCc2ccccc2C1	-0.6	0.65
CCC(=O)NNc1ccccc1	0.76	.
COc1ccc2c(c1)CCc1sc(/N=C/c3ccc(C(F)(F)F)cc3)nc1-2	1.75	.
Cc1csc(=O)n1CC(=O)OCC(=O)Nc1ccccc1	.	-0.5
CCCS(=O)(=O)C1=C(N)OC(c2ccccc2)=C(C#N)C1c1ccccc1 (stereo not drawn)	-0.325	0.45
COc1ccc(C(=O)N/C(=C\c2cccc3ccccc23)C(=O)N2CCN(C)CC2)cc1	0.175	0.2
O=C1/C(=C/c2ccc(Cl)cc2)C=C(c2ccccc2)N1c1ccc(O)cc1	-0.685	.
O=C1Nc2ccc(F)cc2C1=Nc1ccc(Cl)cc1	2.22	.
CCc1ccc(C2C(C(=O)O)c3ccccc3C(=O)N2C)cc1 (stereo not drawn)	1.27	-1.25
CCC(CO)Nc1ncnc2nc[nH]c12 (stereo not drawn)	1.85	-0.3
CCN1C(=O)/C(=C\c2ccc(-c3ccc(Cl)c(C(=O)O)c3)o2)SC1=S	-1.15	-1.15
N#C/C(=C\c1ccccc1)C(=O)Nc1cccc2c(=O)[nH][nH]c(=O)c12	.	-1.5
CCOc1ccc2sc(C=NCc3ccc(OC)cc3)c(O)c2c1	-1.12	.
CCCNS(=O)(=O)c1c[nH]c(C(=O)OC)c1	-0.435	-0.75
CCn1cnc2ccc(N3Cc4ccccc4C3=N)cc21	.	0.55
FC(F)(F)c1ccc(C=Nn2c(-c3ccccc3)n[nH]c2=S)cc1	1.39	-0.25
Nc1nc(N)n(-c2ccccc2)n1	1.48&0.76	0.15&-0.05
Cn1c(SCc2ccccc2)nnc1-c1c[nH]c2ccccc12	-0.09	-0.85
CC(C)c1ccc(S(=O)(=O)N2CCN(C(=O)n3ccnc3)CC2)cc1	.	1.15
CCC1SC(=Nc2ccc(C)cc2)NC1=O (stereo not drawn)	0.52	0.55
O=C(NN1CCOCC1)c1ccccc1NS(=O)(=O)c1ccc(F)cc1F	.	0.25
COc1ccc(C2/C(=C(\O)c3ccccc3)C(=O)C(=O)N2c2ccc(Br)cn2)cc1 (stereo not drawn)	5.91	.
COC(=O)c1ccccc1NC(=O)C(F)(F)F	3.19	-0.7
O=C(NC(C(=O)Nc1ccc(Br)cc1)C12CC3CC(CC(C3)C1)C2)c1ccccc1 (stereo not drawn)	0.35	.
O=C(Cn1ncc2c(=O)oc3ccccc3c21)NCCCN1CCN(c2ccccc2F)CC1	0.575	-0.35
O=C(Nc1cccc(C(F)(F)F)c1)Nc1ccc2c(c1)OCO2	.	-0.25
CCN(c1ccccc1)S(=O)(=O)c1cc(C(=O)Nc2cccc(Cl)c2)ccc1F	-0.8	.
CC(NC(=S)Nc1ccc(S(N)(=O)=O)cc1)c1ccc2c(c1)OCO2 (stereo not drawn)	-0.525	-0.75
CCC(C)NC(=O)C1COc2ccccc2O1 (stereo not drawn)	.	-0.55
COc1ccc(S(=O)(=O)NCC2CCC(C(=O)O)CC2)cc1 (stereo not drawn)	-0.975	2.7
c1ccc(CN2CCC(NCC3CCCO3)CC2)cc1 (stereo not drawn)	0.28	-0.15
N#CCc1ccc(OCc2ncc(C(F)(F)F)cc2Cl)cc1	0.615	-0.3
CCOC(=O)c1ccc(N2N=C(C)/C(=C\c3cccn3-c3ccc([N+](=O)[O-])cc3)C2=O)cc1	0.01	.
O=C([C@H](Cc1ccccc1)N1Cc2ccccc2C1=O)N1CCN(c2ccccc2)CC1	0.095	0.35

New compounds follow
SMILES	CapD inh	AID504770
CC1CCN(S(=O)(=O)c2cccc(C(=O)N3CCN(c4ccc(F)cc4)CC3)c2)CC1	0.12	-0.65
COc1ccc(CCNC(=O)Cn2c(=O)c3sccc3n(CC(=O)N3CCCCC3C)c2=O)cc1OC (stereo not drawn)	0.685	0
O=C(NCCCN1CCCC1=O)Nc1ccc(Cl)cc1	1.82	-1.4
COC(=O)C1=C(N)OC2=C(C(=O)CC(c3ccccc3)C2)C1c1cc(OC)ccc1OC (stereo not drawn)	-0.685	.
O=C(c1oc(=O)c2ccccc2c1-c1ccccc1)N1CCOCC1	-0.26	-0.15
Nc1cc(Cl)ccc1C(=O)N1CCSCC1	-0.045	0.3
Nc1nnnn1/N=C/c1ccccc1O	0.2	-1.55
CCCC(C(=O)Nc1nccs1)c1ccccc1 (stereo not drawn)	.	-0.2
Cn1cccc1CNC1CCCCCCC1	.	-1.1
Cc1cc2c(c(=O)o1)C(c1ccc(C(F)(F)F)cc1)C(C(=O)OC(C)C)=C(N)O2 (stereo not drawn)	-0.56	-0.7
CCOC(=O)C1CCN(Cc2cccc(OC)c2O)CC1	0.34	0.35
COc1ccc(-c2nc(-c3cccs3)no2)cc1OC	-0.485	1.15
COc1cccc(S(=O)(=O)Nc2ccc(C(=O)N3CCN(C(=O)c4ccco4)CC3)cc2)c1	-0.47	1.65
CCCCCC(=O)Nc1ccc(C(=O)COC(=O)c2cccnc2N2CCCC2)cc1	.	0.35
CC(=O)NC(C)c1nc2ccccc2n1CC(=O)Nc1cccc(C)c1C (stereo not drawn)	.	-0.4
CSC1=NCCN1CCOc1ccccc1	-0.08	-0.45
O=c1[nH]nc2n1-c1ccccc1SC2	0.28	-0.3
Cn1c(NC(=O)C2CC2)cc(=O)n(C)c1=O	.	-0.7
CC1CC(C)CN(C(=O)NCc2noc3ccccc23)C1 (stereo not drawn)	-1.06	-0.8
N=c1n(Cc2ccccc2)c2ccccc2n1CC(O)c1ccccc1 (stereo not drawn)	-0.31	-0.45
CC1CCc2cc(F)ccc2N1C(=O)c1cc(S(=O)(=O)N2CCCC2)cn1C (stereo not drawn)	0.58	1.15
CSc1n[nH]c(N)c1S(=O)(=O)c1ccc(Cl)cc1	-0.295	0.2

Screens (PubChem)
